# High-throughput results deposited in PubChem BioAssay by several laboratories.
# CBX7 AlphaScr: inhibitors of human CBX7 binding to H3K27me3 peptide; 66,000 tested, 1.1% active; O95931; AID 1224903; AlphaScreen His6-CBX7 / biotin-H3K27me3 peptide binding; stronger effect = lower value; normalised signal (fraction of DMSO) (test concentration not listed); in the data active = normalised signal below about 0.5;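 also: 100 nL library stock added to about 20 µL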
# Target sequence (O95931 whole entry, looked up): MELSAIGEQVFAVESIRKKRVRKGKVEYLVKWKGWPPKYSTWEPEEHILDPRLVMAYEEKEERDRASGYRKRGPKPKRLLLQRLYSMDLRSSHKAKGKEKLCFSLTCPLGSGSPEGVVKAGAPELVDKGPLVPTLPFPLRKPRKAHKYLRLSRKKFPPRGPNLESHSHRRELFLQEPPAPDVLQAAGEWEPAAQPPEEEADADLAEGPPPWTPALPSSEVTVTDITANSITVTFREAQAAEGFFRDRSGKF
# CBX7 AlphaScr z-score: recorded beside CBX7 AlphaScr, whose call it bears; z-score; measured here: z-score of CBX7 signal; some inactives read as strong as hits; reference of the scale not given here;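 same signal on another scale; lower means less binding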
# Starred values were filed as active, the others as inactive.
SMILES,CBX7 AlphaScr,CBX7 AlphaScr z-score
O=C(c1ccccc1)N1CCc2c([nH]c3ccccc23)C1c1ccc2c(c1)OCO2 (stereo not drawn),0.6,-2.9
CCC(=O)N1CCc2cc(S(=O)(=O)NCCC(=O)Nc3ccc(OC)c(OC)c3)ccc21,1.2,2.3
N#Cc1c(N2CCN(C(=O)c3ccccc3)CC2)nc(-c2ccccc2)c2c1CCCC2,0.85,-0.17
CCCCNC(=O)CCn1nc(-c2ccc(C)cc2)c2ccccc2c1=O,1.1,2
CCN(CC)CCCNC(=O)CN1C(=O)COc2ccc(S(=O)(=O)N3CCOCC3)cc21,0.97,-0.79
COc1ccccc1NC(=O)Cn1ccc2ccccc2c1=O,0.98,-0.17
CCc1ccc(-c2nc(CN3CCC(C(=O)NC4CCCCC4C)CC3)c(C)o2)cc1 (stereo not drawn),1.1,1.4
CCN1CCN(CCCNC(=O)CS(=O)(=O)Cc2nc(-c3cccc(OC)c3)oc2C)CC1,1.4,3.6
CC(C)Cc1cc(C(=O)Nc2ccc(F)cc2F)no1,1.3,2.1
Cc1ccc(NC(=O)CC2Nc3ccccc3NC2=O)c(C)c1 (stereo not drawn),1,-0.025
CCN(CC)c1ccc(Nc2ncnc3ccccc23)c(C)c1,0.94,-0.91
Cc1nc2cc(-c3cccc(F)c3)nn2c(C)c1CCC(=O)NCc1ccccc1,0.92,-1.4
CCN1CCc2c(sc(NC(=O)c3ccc(S(=O)(=O)N4CCCCC4)cc3)c2C(=O)OC)C1,1,0.049
O=C(C1CCC1)N1CCc2cc(S(=O)(=O)NCCN3CCN(c4ccccc4)CC3)ccc21,0.93,-1.9
CCOCCCNC(=O)CN1C(=O)CCSc2ccccc21,0.98,-0.89
CNC(=O)c1c(-c2ccccc2)oc2ccc(O)cc12,0.95,-0.34
Cc1cccc2c1-c1sc(C(=O)N3CCCC(C)C3)cc1CO2 (stereo not drawn),1.2,8.4
Cc1ccc2nc(-c3cccs3)c(Nc3ccc4c(c3)OCO4)n2c1,0.99,-0.39
CCOc1ccc(NC(=O)CSc2nccn2-c2ccc(F)cc2)cc1,0.74,-0.35
COc1ccc2c(c1)CCc1c(C(=O)NC(C)c3ccccc3)noc1-2 (stereo not drawn),1.1,0.47
CCCN(C(=O)Cc1c(C(=O)O)[nH]c2ccccc12)c1cccc(C)c1,1,0.41
COc1ccc(-c2cn(-c3ccccc3Cl)c(SCC(=O)Nc3cccc(F)c3)n2)cc1OC,0.76,-2.5
Cc1oc(-c2ccc(Cl)cc2)nc1C(=O)NCCCN1CCCC(C)C1 (stereo not drawn),1,0.059
CCN(C(=O)Cc1c(C(=O)O)[nH]c2ccc(Cl)cc12)c1cc(OC)ccc1OC,1,1.3
Cc1nn(Cc2ccccc2)c(C)c1NC(=O)c1cc(-c2ccco2)on1,0.96,-1.1
COc1ccc(N2CCN(CC(O)COc3ccc(C(C)C)c(C)c3)CC2)cc1 (stereo not drawn),0.82,-1.9
CC(=O)N1CCc2cc(S(=O)(=O)NCCC(=O)NC(C)c3ccccc3)ccc21 (stereo not drawn),0.91,-1.4
COc1ccc(C(=O)Nc2ccc(S(=O)(=O)N3CCCCC3c3cccnc3)cc2)cc1OC (stereo not drawn),1,0.14
COc1ccc(Br)cc1CNC(=O)CCNC(=O)Cn1ccc2ccccc2c1=O,1,0.62
Cc1ccc(-c2noc(CN(Cc3ccco3)S(C)(=O)=O)n2)cc1,0.88,-2.2
CCN(C(=O)c1ccc2c(=O)n3c(nc2c1)CCCCC3)c1ccccc1C,0.92,-1.4
CCC1=Nc2cc(C(=O)NCCCN3CCCCC3CC)ccc2Sc2ccccc21 (stereo not drawn),0.91,-0.21
Fc1ccccc1Nc1nc2nonc2n2nnnc12,0.88,-1.6
COCCCNC(=O)c1cc(Nc2ccc(C)cc2C)nc2ccccc12,1.2,2.4
O=C1CCc2cc(S(=O)(=O)NC(Cc3ccccc3)C(=O)Nc3ccccn3)ccc2N1 (stereo not drawn),1.1,0.72
O=C1CCc2cc(S(=O)(=O)NCCC(=O)N3CCn4c3nc3ccccc34)ccc2N1,1,0.86
CCN(CC)S(=O)(=O)c1ccc2oc(C(=O)Nc3ccc(OC)c(Cl)c3)c(C)c2c1,1,1.8
O=C(c1ccc(Cn2c(=O)[nH]c3ccccc3c2=O)cc1)N1CCN(c2cccc(Cl)c2)CC1,0.78,-0.62
CCN(CC)CCNC(=O)C1CCN(C(=O)c2cnn(-c3ccccc3)c2-n2cccc2)CC1,0.94,-0.14
COc1cccc(-c2nn(C)c3sc(C(=O)N4CCN(c5ccc(F)cc5)CC4)cc23)c1,0.77,-8.7
CC1CC(C)CN(CCCNC(=O)c2cc3sc(Cl)cc3n2C)C1 (stereo not drawn),0.86,-2.3
COc1ccc(Cl)cc1NC(=O)c1cc(-c2ccc3c(c2)OCO3)on1,1.1,0.52
CC(C)(O)C#Cc1ccc(C(=O)NCc2ccncc2)cc1,1,1.3
O=C(CC1Nc2ccccc2NC1=O)Nc1ccc(OC(F)F)cc1 (stereo not drawn),0.89,-0.25
O=C1c2ccccc2C(Nc2ccc3c(c2)OCCO3)N1c1ccccn1 (stereo not drawn),0.93,-2.4
CCCn1c(-c2nonc2N)nc2ccccc21,1,0.38
COc1ccc(OC)c(NC(=O)c2sc3nc(-c4ccccc4)cn3c2C)c1,1.1,1.2
COc1ccc2c(c1)CCc1c(C(=O)NCCCN3CCOCC3)noc1-2,1,0.33
COCCCNC(=O)c1ccc2c(c1)N(Cc1ccccc1)C(=O)CS2=O (stereo not drawn),1.1,1
COc1ccc(-c2nn(C)c(=O)c3ccccc23)cc1CNC(=O)NC1CCCCC1,1,0.55
O=C1CC(N2CCN(Cc3ccc(Cl)cc3)CC2)C(=O)N1c1ccc(Cl)cc1 (stereo not drawn),1,1.9
COc1c(Cl)ccc(Cl)c1C(=O)Nc1ccc(C)cc1C,1.1,0.16
CCCCCn1c(CCCNC(=O)c2ccc(F)cc2)nc2ccccc21,1.2,1.8
O=C(CN1N=C(c2ccc(Cl)cc2)CCC1=O)NC1CCCCCCC1,0.97,-0.46
CCOc1ccc(CCNC(=O)c2c(-n3cccc3)sc(C)c2C)cc1OCC,1,1
CCN1CCN(C(c2cccs2)C(C)NC(=O)CC(C)C)CC1 (stereo not drawn),1.1,1.5
COc1ccc(N2C(=O)C(CC(=O)Nc3ccc(F)cc3)N(CCc3cccs3)C2=O)cc1 (stereo not drawn),0.98,-0.92
COc1cc(OC)cc(C(=O)Nc2cccc(-c3nc4cc(C)ccc4o3)c2)c1,1,-0.029
COC(=O)c1cccc(Nc2c3c(nc4ccccc24)CCC3)c1,0.95,-0.88
COc1ccc(NS(=O)(=O)c2ccc3c(c2)CCN3C(C)=O)cc1OC,1.1,1.8

# Other structures
SMILES,CBX7 AlphaScr,CBX7 AlphaScr z-score
CCOc1ccc(NC(=O)N2CCN(c3ccc(C(F)(F)F)cn3)CC2)cc1,0.99,-0.25
O=C(c1cc(-c2cccc(Cl)c2)on1)N1CCN(c2ccc(F)cc2)CC1,1.1,1.5
O=C(Cn1ncc2c1-c1ccccc1OC2)Nc1nccs1,0.54,-2.7
COc1ccc(C(=O)NCc2nnc(SCC(=O)NCc3ccc4c(c3)OCO4)o2)cc1,1.1,1.5
Cc1ccc(NC(=O)c2oc3ccc(S(=O)(=O)N4CCCCC4)cc3c2C)cc1Cl,1.1,2.6
CCOc1ccc(CCNC(=O)CN2CCN(Cc3ccccc3C)C2=O)cc1OCC,1.2,3.4
Cc1cccc(Nc2nnc(-c3ccc(C)c(S(=O)(=O)N4CCCCC4)c3)c3ccccc23)c1,0.89,-2.2
COc1ccc(C2CC(=O)C3=C(C2)Nc2ccccc2NC3c2ccccc2OC(C)C)cc1 (stereo not drawn),0.94,-0.38
Cc1nc2cc(-c3cccc(F)c3)nn2c(C)c1CCC(=O)NCCC1=CCCCC1,1,0.63
Cc1ccc2nc(NC(=O)c3ccccc3C(=O)O)sc2c1,1.1,3.7
CC(C)c1ccc2oc(-c3cc(NC(=O)c4cc5ccccc5o4)ccc3Cl)nc2c1,1,0.62
COc1ccccc1-c1c(C)nn2c(N3CCC(C(N)=O)CC3)cc(C)nc12,1.2,0.88
COC(=O)Cc1nc(N2CCN(c3ccccc3OC)CC2)c2c(C)c(C)sc2n1,0.93,-2.5
CCn1c(SCC(=O)NC2CCCC2)nnc1-c1c[nH]c2ccccc12,1,0.21
CC(C)(Oc1ccc(Cl)cc1)C(=O)N1CCN(c2ccccn2)CC1,0.93,-0.094
CCCCCCCNC1CC(=O)N(c2ccc(OCCC)cc2)C1=O (stereo not drawn),1.1,0.08
CCCCNC(=O)c1cc(Nc2ccc(OCC)cc2)nc2ccccc12,0.98,-0.54
CCC(=O)NCCc1nc2ccccc2n1Cc1cc(C)ccc1C,0.93,-0.3
COc1ccccc1CNC(=O)c1ccc2c(c1)ncn2-c1cc(C)ccc1OC,1.1,1.1
COc1ccc(NC(=O)CN(C)S(=O)(=O)c2ccc3nc(C)sc3c2)cc1,0.97,-0.78
Clc1cccc(CN2CCN(Cc3cccnc3)CC2)c1,0.81,-2.2
CCc1ccc(NC(=O)c2csc3c2CCCCC3)cc1,1,0.37
CC(=O)Nc1nnc(Cc2ccccc2F)s1,1,1.6
COc1ccc2[nH]c(C)c(CCNS(=O)(=O)c3ccc(C(C)C)cc3)c2c1,0.87,-2
CCn1c(C(=O)NC(C)c2ccccc2)cc2sc(Cl)cc21 (stereo not drawn),1,1.7
O=C1CSc2ccc(C(=O)NCCCN3CCCCC3)cc2N1,0.9,-1.1
COc1ccc(-n2c(Cc3cc(=O)[nH]c(=O)[nH]3)nnc2SCc2cc(C)ccc2C)cc1,0.83,-2.6
C=CCc1ccccc1OCC(O)CN1CCN(c2ccc(C)cc2)CC1 (stereo not drawn),0.25*,-1.6*
CCn1c(C2CC(=O)N(c3ccc(Br)cc3)C2)nc2ccccc21 (stereo not drawn),0.75,-1.6
CCC1CCCCN1CCCNC(=O)c1cc2c(s1)CSC2 (stereo not drawn),1,0.37
Cc1cccc(NC(=O)C2CCCN(S(=O)(=O)c3c(C)noc3C)C2)c1C (stereo not drawn),1,0.18
COc1ccc(-c2cc3ccccc3n2CC(O)CN2CCCCC2)cc1 (stereo not drawn),0.86,-2.9
COc1ccc(OC)c(Nc2nc3nonc3n3c(C)nnc23)c1,1.1,2.2
CS(=O)(=O)c1ccc2nc(NC(=O)CCCC(=O)O)sc2c1,1,0.33
Cc1ccc(Cl)cc1NS(=O)(=O)c1ccc2c(c1)CCN2C(=O)CCC(=O)O,0.9,-1.7
CC(NC(=O)c1cccnc1)C(c1cccs1)N1CCN(C)CC1 (stereo not drawn),0.97,-0.32
Cc1ccc(NCC(O)Cn2c(C)c(C)c3ccccc32)cc1C (stereo not drawn),0.89,-2.9
COc1ccc(N2Cc3cccc(C(=O)NCCCN4CCCC4=O)c3C2=O)cc1,0.98,-0.84
C=CCn1c(CNC(=O)c2ccc(Cl)cc2)nc2ccccc21,1.3,2.6
O=C(Nc1ccccc1C(=O)O)c1cc(S(=O)(=O)N2CCCCCC2)ccc1Cl,1,0.42
Cc1ccc(-c2nc(CS(=O)(=O)CC(=O)N3CC(C)CC(C)C3)c(C)o2)cc1 (stereo not drawn),0.97,-0.063
COc1ccccc1C(CCNCc1ccc(OC(C)C)cc1)c1ccc2c(c1)OCO2 (stereo not drawn),0.17*,-2.3*
c1ccc(Nc2c(-c3ccc(N4CCOCC4)cc3)nc3cnccn23)cc1,0.93,-0.82
CCOC(=O)c1ccc(NC(=O)CS(=O)(=O)Cc2nc(-c3cccc(OC)c3)oc2C)cc1,0.98,-0.57
COc1ccc(C(=O)NCc2nnc(SCC(=O)Nc3ccccc3C(F)(F)F)o2)cc1OC,1,0.77
O=C(NCc1ccccc1Cl)C1CCN(c2nc3ccccc3o2)CC1,1.1,0.11
CC1CCCCN1CCNc1ccc2nnc(-c3ccccc3)n2n1 (stereo not drawn),0.99,-0.21
Clc1cccc(-c2nc(-c3cccs3)no2)c1,1.4,19
Cc1ccc(-c2nnc(SCC(=O)N3CCCCC3C)o2)cc1 (stereo not drawn),0.95,-0.12
CCOC(=O)N1CCC(Nc2c(NCCc3cccc(C)c3)c(=O)c2=O)CC1,0.83,-2.1

# Given bar-delimited: part of the list above
molecule | CBX7 AlphaScr | CBX7 AlphaScr z-score
CS(=O)(=O)c1ccc2nc(NC(=O)CCCC(=O)O)sc2c1 | 1 | 0.33
Cc1ccc(Cl)cc1NS(=O)(=O)c1ccc2c(c1)CCN2C(=O)CCC(=O)O | 0.9 | -1.7
CC(NC(=O)c1cccnc1)C(c1cccs1)N1CCN(C)CC1 (stereo not drawn) | 0.97 | -0.32
Cc1ccc(NCC(O)Cn2c(C)c(C)c3ccccc32)cc1C (stereo not drawn) | 0.89 | -2.9
COc1ccc(N2Cc3cccc(C(=O)NCCCN4CCCC4=O)c3C2=O)cc1 | 0.98 | -0.84
C=CCn1c(CNC(=O)c2ccc(Cl)cc2)nc2ccccc21 | 1.3 | 2.6
O=C(Nc1ccccc1C(=O)O)c1cc(S(=O)(=O)N2CCCCCC2)ccc1Cl | 1 | 0.42
Cc1ccc(-c2nc(CS(=O)(=O)CC(=O)N3CC(C)CC(C)C3)c(C)o2)cc1 (stereo not drawn) | 0.97 | -0.063
COc1ccccc1C(CCNCc1ccc(OC(C)C)cc1)c1ccc2c(c1)OCO2 (stereo not drawn) | 0.17* | -2.3*
c1ccc(Nc2c(-c3ccc(N4CCOCC4)cc3)nc3cnccn23)cc1 | 0.93 | -0.82
CCOC(=O)c1ccc(NC(=O)CS(=O)(=O)Cc2nc(-c3cccc(OC)c3)oc2C)cc1 | 0.98 | -0.57
COc1ccc(C(=O)NCc2nnc(SCC(=O)Nc3ccccc3C(F)(F)F)o2)cc1OC | 1 | 0.77
O=C(NCc1ccccc1Cl)C1CCN(c2nc3ccccc3o2)CC1 | 1.1 | 0.11
CC1CCCCN1CCNc1ccc2nnc(-c3ccccc3)n2n1 (stereo not drawn) | 0.99 | -0.21
Clc1cccc(-c2nc(-c3cccs3)no2)c1 | 1.4 | 19
Cc1ccc(-c2nnc(SCC(=O)N3CCCCC3C)o2)cc1 (stereo not drawn) | 0.95 | -0.12

# Not all compounds are listed; count on the stated rates, not on these rows.
